FGF22 binding: shifts melting point of recombinant human FGF22 | Q9HCT0 | recombinant FGF22 thermal shift, SYPRO orange fluorescence; percent of sucrose octasulfate shift, DMSO zero | calls only at 9.99 µM | actives 1.5% (n = 340,000) | AID 651658;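 active means melting point raised past a set limit in the mean and every replicate; three in four hits are not shown here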
Target sequence (Q9HCT0 whole entry, looked up): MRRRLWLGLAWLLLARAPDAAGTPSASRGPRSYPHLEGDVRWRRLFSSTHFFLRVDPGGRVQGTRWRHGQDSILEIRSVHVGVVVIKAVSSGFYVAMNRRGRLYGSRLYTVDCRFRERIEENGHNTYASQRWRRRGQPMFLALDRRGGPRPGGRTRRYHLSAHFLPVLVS
HNF4A DNA FP: change in binding of human HNF4 alpha to DNA. HNF4a-FITC DNA binding, fluorescence polarization, 1 h. actives 0.3% (n = 360,000). AID 1224865. P41235. activity change, % at 10 µM; in the data active means activity change above about 30%, passing the limit was not always enough;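 further: controls were the assay level and a saturating level of protein; the project sought stronger binding though the title names inhibitors; some compounds called inactive have numbers as strong as hits; positive values seem to mean higher polarization but the record does not say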
Target sequence (P41235 whole entry, looked up): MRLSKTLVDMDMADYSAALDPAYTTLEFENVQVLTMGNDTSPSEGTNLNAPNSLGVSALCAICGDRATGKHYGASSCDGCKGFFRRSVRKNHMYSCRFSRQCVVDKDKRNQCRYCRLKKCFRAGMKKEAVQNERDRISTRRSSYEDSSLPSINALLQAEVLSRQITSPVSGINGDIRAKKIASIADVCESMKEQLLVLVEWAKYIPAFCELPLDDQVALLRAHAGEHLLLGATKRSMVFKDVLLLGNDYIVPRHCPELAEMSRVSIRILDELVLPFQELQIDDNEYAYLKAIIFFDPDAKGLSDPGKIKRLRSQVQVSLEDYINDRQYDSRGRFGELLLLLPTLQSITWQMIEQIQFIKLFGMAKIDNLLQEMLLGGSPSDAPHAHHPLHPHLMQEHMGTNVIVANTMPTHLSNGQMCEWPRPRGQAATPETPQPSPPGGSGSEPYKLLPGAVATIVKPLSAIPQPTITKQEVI
Active calls of the source: *; i = inactive; . = not tested or not shown.

1: CCC(c1nnnn1-c1ccc2c(c1)OCCO2)N1CCN(c2ccccc2)CC1 (stereo unspecified)
2: CC(=O)c1ccc(N2CCN(S(=O)(=O)c3ccc4c(c3)CCC(=O)N4)CC2)cc1
3: COc1cc(NCC2COc3c(ccc(OC)c3OC)C2=O)c([N+](=O)[O-])cc1OC (stereo unspecified)
4: COCCN1C(=O)CSCC1(C)C(=O)NC(C)C (stereo unspecified)
5: O=C(NCc1ccccc1)C(c1cccc2ccccc12)n1c(=O)c(-c2cc3ccccc3[nH]2)nc2ccccc21 (stereo unspecified)
6: COc1ccc(S(=O)(=O)N2CCOCC2)cc1NC(=O)c1c(C)noc1C
7: CCCCNC(=O)C[C@@H]1C[C@@]2(C(=O)OCC)CCC=C2N(Cc2ccc(Cl)cc2Cl)C1=O
8: Cc1nn(-c2ccccc2)c(-c2ccccc2[N+](=O)[O-])c1CC#N
9: COCC(C)n1c(SCC(=O)NC2CCCCC2)nc2ccccc2c1=O (stereo unspecified)
10: COc1cccc(C(NC(C)=O)c2nc(-c3ccncc3)cs2)c1 (stereo unspecified)
assay / compound	1	2	3	4	5	6	7	8	9	10
FGF22 binding	i	i	i	i	i	i	i	i	i	i
HNF4A DNA FP	-3.0	1.3	5.6	-0.9	4.2	1.0	0.4	2.5	3.9	5.4

Full records, quoted from the list. Values in the order: FGF22 binding	HNF4A DNA FP
Entry for `COc1cc(NCC2COc3c(ccc(OC)c3OC)C2=O)c([N+](=O)[O-])cc1OC` (stereo unspecified) = i	5.6
Entry for `CCCCNC(=O)C[C@@H]1C[C@@]2(C(=O)OCC)CCC=C2N(Cc2ccc(Cl)cc2Cl)C1=O` = i	0.4

The list goes on.
11: CN(C)c1ccc(-c2ccnc3c2CC(C)(C(=O)NCc2ccccc2)O3)cc1 (stereo unspecified)
12: COc1cccc(CNC(=O)[C@@H]2CCCN2C(=O)[C@H]2CCCCN2C(=O)c2cccc(Cl)c2)c1
13: COc1ccc(S(=O)(=O)N2CCC[C@@H]2C(=O)N2CCC[C@H]2C(=O)NCc2ccncc2)cc1C
14: O=C(O)c1c[nH]c2nccnc12
15: COCCN1C[C@@H](CO)O[C@@H](n2cnc3c(NCCCO)ncnc32)C1
16: COc1ccc(CCNC(=O)c2cc([C@@H](NC(=O)OC(C)(C)C)C(C)C)sc2N)cc1OC
17: COc1ccc(CN2C[C@@H](CO)O[C@@H](n3cnc4c(N5CCOCC5)ncnc43)C2)cc1
18: COc1ccc(CN2C(=O)c3ccccc3C2c2nnnn2C(C)C)cc1OC (stereo unspecified)
19: COc1cc2c(cc1NC(=O)c1ccccc1-c1ccccc1C(=O)O)-c1ccccc1C2
20: Oc1ccc(C[C@H]2CN([C@@H](Cc3ccc(O)cc3)CN3CCC[C@@H]3CN3C(=S)NC[C@@H]3Cc3ccccc3)C(=S)N2CC2CCCCCC2)cc1
assay / compound	11	12	13	14	15	16	17	18	19	20
FGF22 binding	i	i	i	i	i	i	i	i	i	i
HNF4A DNA FP	0.5	0.8	-1.7	2.9	2.8	6.2	-0.7	3.4	-1.4	1.2

21: C[C@@H]1CN([C@@H](C)CO)C(=O)c2cc(NS(C)(=O)=O)ccc2O[C@@H](C)CCCCO[C@H]1CN(C)C(=O)Nc1ccc2c(c1)OCO2
22: Cc1cccnc1C(NC(=O)C1CCN(CCCc2ccccc2)CC1)c1ccc(F)cc1 (stereo unspecified)
23: CCCCN1C(=O)C(CC(=O)NC(c2ccccc2)c2ccccc2)CC(C(=O)N(CC)CC)=C1C (stereo unspecified)
24: Cc1ccc(NC(=O)c2cc(-c3cc(Cl)ccc3C)n[nH]2)cc1NS(C)(=O)=O
25: Cc1cc(=O)n2nc(N3CCCC(C(=O)NCCCN4C(C)CCCC4C)C3)sc2n1 (stereo unspecified)
26: CN(C)CCNC(=O)c1cccc(-c2cnc3c(NC=O)cc(-c4cccc(C(F)(F)F)c4)cn23)c1
27: O=C(NCc1cccnc1)c1cc(C2CCCCN2S(=O)(=O)c2ccc(F)cc2F)on1 (stereo unspecified)
28: CN(C)Cc1c[nH]c2nccnc12
29: COc1ccccc1CNC(=O)c1ccc2nc(C)c(N(C)Cc3ccc(NC(C)=O)cc3)n2c1
30: CC(C)(C)S(=O)N1Cc2cc(C(=O)NCc3ccc4c(c3)OCO4)nc(-c3cccc(-c4ccncc4)c3)c2[C@H]1CCO (stereo partly specified)
assay / compound	21	22	23	24	25	26	27	28	29	30
FGF22 binding	i	i	i	i	i	i	i	i	i	i
HNF4A DNA FP	-2.4	-1.1	0.9	-3.6	0.9	14	-2.6	-0.7	6.5	13

31: Cc1ccc(-c2nc3c4ccccc4ccn3c2CC2CCCCC2)cc1
32: C=Cn1cc(CNC[C@H]2O[C@@H](n3cc(C)c(=O)[nH]c3=O)C[C@@H]2O)c(C)n1
33: CCS(=O)(=O)N1CCC2(CC1)OCCN2S(=O)(=O)c1ccccc1
34: C=C1C(=O)CC2=C1[C@](Cc1ccc(F)cc1)(C(=O)OC)N(C(=O)c1ccccc1)C2
35: CCOC(=O)C1CCCN(C(=O)c2ccc(C(F)(F)F)nc2C)CC1 (stereo unspecified)
36: CC(C)N(C)c1ncnc2c1ncn2[C@H]1CN(C2CCCC2)C[C@@H](CO)O1
37: CCC(C)CN1C(=O)CSCC1(C)C(=O)Nc1c(C)cccc1C (stereo unspecified)
38: CC1(Oc2ccc(Cl)cc2)CCN(Cc2cccn2-c2nccs2)C1 (stereo unspecified)
39: CCOC(=O)C1CCCN(C(=O)c2cc(-c3ccccc3)cs2)CC1 (stereo unspecified)
40: CCCCNC(=O)c1nc(C2CCN(S(=O)(=O)c3ccc(Cl)cc3)CC2)oc1-c1ccccc1
assay / compound	31	32	33	34	35	36	37	38	39	40
FGF22 binding	i	i	i	i	i	i	i	i	i	i
HNF4A DNA FP	18	-2.8	4.4	8.8	-3.6	1.3	7.5	2.9	-3.8	1.6

41: OC(c1ccc(F)cc1)c1nc(-c2csc3ccccc23)cs1 (stereo unspecified)
42: CC(=O)Nc1ccc(-c2ccnc3c2CC(C)(C(=O)Nc2ccc(Cl)cc2)O3)cc1 (stereo unspecified)
43: O=S1(=O)CC(N2CC=CC2)CN1Cc1ccccc1 (stereo unspecified)
44: COc1cccc(N2CCN(C(=O)c3cccc(NC(=O)C4=C(C)OCCS4)c3)CC2)c1
45: CN(C)CCCNc1nc2cc(-c3ccsc3)sc2c(=O)n1C
46: CCc1nc2ccc(C(=O)N(C)Cc3ccccc3)cn2c1N(CC)Cc1cccc(Br)c1
47: O=C(CN1C(=O)NC2(CCc3ccccc32)C1=O)Nc1ccc(Cl)cc1F (stereo unspecified)
48: C[C@H](O)[C@@H]1CN2CCc3c([nH]c4ccccc34)[C@@H]2C[C@@H]1N(C)C(=O)NC1CCCCC1
49: CCOC(=O)C1=CC[C@@H](c2ccccc2)N(S(=O)(=O)c2ccc(C)cc2)[C@H]1C=C(C)C
50: CC(C)Nc1ncnc2c1ncn2[C@H]1CN(Cc2ccncc2)C[C@@H](CO)O1
assay / compound	41	42	43	44	45	46	47	48	49	50
FGF22 binding	i	i	i	i	i	i	i	i	i	i
HNF4A DNA FP	-2.5	-4.0	-1.8	3.1	3.7	2.0	-1.8	-0.9	1.3	1.0

51: CC(C)Oc1ccc(C(=O)N2CCC(CCC(=O)NC3CC3)CC2)cc1
52: Cc1ccc(S(=O)(=O)N2C[C@]3(O)C[C@@H]4C(=O)N(c5ccccc5)C(=O)[C@@H]4C[C@]3(OC(=O)NCc3ccccc3)C2)cc1
53: Cc1noc(C)c1C(=O)OC(C)C(=O)c1ccc(C(C)(C)C)cc1 (stereo unspecified)
54: Cc1ccc(CC2(C)C(=O)Nc3ccc(OC(F)(F)F)cc32)cc1 (stereo unspecified)
55: COC(=O)C1=CN(c2ccc(N3CCOCC3)cc2)C(N)=C(C#N)C1c1ccc(-c2ccccc2)cc1 (stereo unspecified)
56: COc1ccc(C(=O)N/C(=C\c2ccc(-c3cccc([N+](=O)[O-])c3)o2)C(=O)NCCCN2CCOCC2)cc1
57: CCc1nc2ccc(C(=O)NCCC(C)C)cn2c1N(CCN(C)C)CC1CC1
58: O=C(NCc1cccs1)c1csc([C@@H]2C[C@H](O)[C@@H](CO)O2)n1
59: Cc1ccc(OC(=O)N(C)C[C@@H]2OCc3cn(nn3)CCCC(=O)N([C@@H](C)CO)C[C@H]2C)cc1
60: C[C@@H]1CN([C@@H](C)CO)C(=O)CCCn2nncc2CO[C@@H]1CN(C)C(=O)Nc1ccccc1F
assay / compound	51	52	53	54	55	56	57	58	59	60
FGF22 binding	i	i	i	i	i	i	i	i	i	i
HNF4A DNA FP	3.5	0.3	0.6	-3.5	5.0	3.5	2.6	-8.4	1.9	-0.1

61: C=Cc1ccc(CC2(C)C(=O)Nc3ccc(Cl)cc32)cc1 (stereo unspecified)
62: CC(=O)Nc1ccc(C(=O)N2CCCCC2c2cc(C(=O)NCc3ccc(F)cc3)no2)cc1 (stereo unspecified)
63: Cc1ccc(S(=O)(=O)N2C[C@H]3n4c(=O)ccc(=O)n4C[C@H](OC(=O)NCc4ccccc4F)[C@@]3(O)C2)cc1
64: CN1CCC(C)(C(=O)Nc2cccc(Oc3ccccc3)c2)C1 (stereo unspecified)
65: CC1(Cc2ccc(Cl)c(Cl)c2)C(=O)Nc2ccc(S(=O)(=O)NC3CCCCC3)cc21 (stereo unspecified)
66: COC(=O)C1=CN(c2ccc3c(c2)OCO3)C(N)=C(C#N)C1c1ccccc1 (stereo unspecified)
67: O=C(Nc1ccccc1Cl)c1cc(C2CCCCN2C(=O)CCCc2ccccc2)on1 (stereo unspecified)
68: O[C@H]1C[C@H](c2ccccc2)N(Cc2cccs2)C[C@@H]1n1cc(-c2ccc(F)cc2)nn1
69: CCCc1c(-c2ccc(F)cc2F)ncn1Cc1cccc(-c2ccccc2)c1
70: CC(C)C[C@H]1COc2cc(N3CCC[C@@H]3CO)ccc2S(=O)(=O)N1
71: CC(=O)NC(C)(c1ccccc1)c1nc(-c2ccncc2)cs1 (stereo unspecified)
72: CCOc1ccc(CCN2C(=O)C(=O)N([C@@H](Cc3ccccc3)CN3CCC[C@H]3CN3C(=O)C(=O)NC[C@@H]3Cc3ccccc3)C[C@@H]2CC(C)C)cc1
assay / compound	61	62	63	64	65	66	67	68	69	70	71	72
FGF22 binding	i	i	i	i	i	i	i	i	.	i	i	i
HNF4A DNA FP	0.5	0.6	1.8	-0.5	2.0	-4.4	1.4	1.3	8.8	-0.3	-1.8	-1.7

Entries above containing a Cl atom, in the order listed:
7: CCCCNC(=O)C[C@@H]1C[C@@]2(C(=O)OCC)CCC=C2N(Cc2ccc(Cl)cc2Cl)C1=O
12: COc1cccc(CNC(=O)[C@@H]2CCCN2C(=O)[C@H]2CCCCN2C(=O)c2cccc(Cl)c2)c1
24: Cc1ccc(NC(=O)c2cc(-c3cc(Cl)ccc3C)n[nH]2)cc1NS(C)(=O)=O
38: CC1(Oc2ccc(Cl)cc2)CCN(Cc2cccn2-c2nccs2)C1 (stereo unspecified)
40: CCCCNC(=O)c1nc(C2CCN(S(=O)(=O)c3ccc(Cl)cc3)CC2)oc1-c1ccccc1
42: CC(=O)Nc1ccc(-c2ccnc3c2CC(C)(C(=O)Nc2ccc(Cl)cc2)O3)cc1 (stereo unspecified)
47: O=C(CN1C(=O)NC2(CCc3ccccc32)C1=O)Nc1ccc(Cl)cc1F (stereo unspecified)
61: C=Cc1ccc(CC2(C)C(=O)Nc3ccc(Cl)cc32)cc1 (stereo unspecified)
65: CC1(Cc2ccc(Cl)c(Cl)c2)C(=O)Nc2ccc(S(=O)(=O)NC3CCCCC3)cc21 (stereo unspecified)
67: O=C(Nc1ccccc1Cl)c1cc(C2CCCCN2C(=O)CCCc2ccccc2)on1 (stereo unspecified)
assay / compound	7	12	24	38	40	42	47	61	65	67
FGF22 binding	i	i	i	i	i	i	i	i	i	i
HNF4A DNA FP	0.4	0.8	-3.6	2.9	1.6	-4.0	-1.8	0.5	2.0	1.4

Screening results deposited in PubChem BioAssay by several laboratories.

A portion of the library, so the mix of outcomes need not match the whole.
